BJeLR viability: MLPCN primary cell-based screen for lethality selective to Ras in HRASV12 cells; BJeLR (HRASV12) viability, CellTiter-Glo ATP luminescence, 48 h; reference of the scale not given here; inhibition, % (concentration not given with the values); 300,000 compounds, 0.17% hits;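 active = replicate mean above 50%; inconclusive = above 50% but judged a plate artefact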;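 also: 50 nL library stock added to about 25 µL; numbers are from one replicate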
Sa ugtP lethal: growth inhibition of ugtP-null S. aureus, primary screen, RN4220 ugtP deletion, OD600; AID 1259309, 2017; 330,000 compounds, 0.54% hits; growth inhibition, % (no concentration beside the values); 16 h; some inactives read as strong as hits;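 active = z-score under -3 and OD600 up to 0.15 on both plates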;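 also: plate controls were untreated wells for no effect and antibiotic for full effect; wells of about 80 µL received 100 nL stock; the first replicate is given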
PrP UTR inh: inhibition of PrP 5' UTR reporter expression. cell-based PrP 5' UTR mRNA reporter, plate reader. inhibition, % (no concentration beside the values). 340,000 compounds, 0.35% hits;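 active = every replicate at 50% or more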;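 also: 0 = median of the neutral control wells; tested in H4 reporter cells; numbers are from one replicate; inactives centre near -14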
Mtb hypoxia rep: PubChem AID 1159583; fluorescence inhibition, % (concentration not given with the values); M. tuberculosis hypoxia-regulated fluorescent reporter, fluorescence; 300,000 compounds, 0.1% hits;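 active = 35 to 45% if threefold the growth effect, above 45% if 1.5-fold the growth effect; inactive = the rest, general growth blockers included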;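 also: wells of about 50 µL received 100 nL stock; 0% = vehicle wells and 100% = reference inhibitor wells; whole bacteria with a GFP reporter of the hypoxia response; strong numbers were not always called active; many hits fall short of the cut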
Bead autofluor: flagged as autofluorescent in microsphere protease counterscreen. 360,000 compounds, 3.1% hits. AID 624483. compound autofluorescence counterscreen, microsphere flow cytometry; stronger effect = higher value. fluorescence intensity (test concentration not listed);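 active = at least 3 SD above the mean of all compounds, about 16000 in these data; inconclusive = too few beads counted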;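 also: 100 nL of 1 mM stock went into each well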
Sa RN4220 lethal: growth inhibition of S. aureus RN4220, primary screen, OD600. 16 h. inhibition, % (test concentration not listed). 330,000 compounds, 0.33% hits. AID 1259311, 2017;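 active = z-score of -3 or lower and OD600 up to 0.18 on both plates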;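 also: plate controls were untreated cells for no effect and reference antibiotic for full effect; stock transfer was 100 nL into about 80 µL; one replicate is shown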
Mtb hypoxia rep growth: further read-out of Mtb hypoxia rep, marked with its call; growth inhibition, %; measured here: M. tuberculosis growth (absorbance);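 0% = vehicle and 100% = reference antibiotic; read after six days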
* = called active by the depositor; ? = inconclusive; · = not tested or not shown.

SMILES	BJeLR viability	Sa ugtP lethal	PrP UTR inh	Mtb hypoxia rep	Mtb hypoxia rep growth	Bead autofluor	Sa RN4220 lethal
CCC(C)(C)NC(=O)C(c1ccccc1Cl)N(C(=O)CCC(=O)Nc1cc(C)on1)C(C)(C)C (stereo unspecified)	-7	9	-11	10	5	2848	4.6
CCOC(=O)c1c(C)[nH]c(C(=O)/C(C#N)=C/c2ccc(OCC)cc2)c1C	4	15	-4	15	7	2704	8.6
CCCCC(=O)OCC(=O)Nc1cccc(S(=O)(=O)NC2=NCCCCC2)c1	-1	1	-14	-7	-6	4102	3.5
CC(Oc1ccc(Cl)cc1Cl)C(=O)NCCCCc1ccccc1 (stereo unspecified)	-5	-2	-15	7	5	9592	21
O=c1c2c(n3nnnc3n1-c1ccccc1)-c1ccccc1CC21CCCC1	-3	13	1	·	·	4503	-1.6
Cc1onc(-c2c(F)cccc2Cl)c1C(=O)N1CCN(c2ncccn2)CC1	2	5	-35	18	14	4597	1.6
O=C1CC(=C(c2ccccc2)c2ccccc2)C(=O)N1CCN1CCN(c2cccc(Cl)c2)CC1	13	39	-19	13	9	2567	-5.4
CN=C1c2cc3c(Br)c(OC)ccc3n2CCN1C	8	2	-12	9	11	11129	1.3
Cc1ccc2c(c1)N(CC(=O)OC(CC(C)C)C(=O)NC1CCCC1)C(=O)CO2 (stereo unspecified)	-5	3	-18	2	6	9519	-1.0
O=C(O)c1cccc(NC(=O)C2CCCO2)c1 (stereo unspecified)	-5	-3	-10	5	-3	8274	-0.1
COC(=O)c1cc(C(=O)c2cc(Cl)ccc2O)coc1=N	-5	-1	-5	-9	-2	4569	-6.3
CC1(C)Cc2c(C#N)c(NCCc3ccccc3)nc(-c3ccco3)c2CO1	0	14	-4	-2	2	2286	17
Cc1cc(C)c(C#N)c(SCc2ccc(C#N)cc2)n1	-11	-7	-9	·	·	2614	0.5
COc1ccc(N2Nc3n[nH]c(N)c3N2)cc1	-6	13	-40	3	5	3374	5.6
CC(C)c1ccc(NC(=O)C(c2ccc3c(c2)OCO3)N2CCN(C(=O)c3ccco3)CC2)cc1 (stereo unspecified)	-3	3	2	-8	3	4363	12
O=c1cc(-c2ccncc2)oc2c1ccc1ccccc12	2	17	-31	7	1	·	7.8
COc1ccc(CCN2C(=O)c3ccncc3C2=O)cc1OC	-7	-4	-4	·	·	2830	-2.6
CC(NC(=O)C1CCN(S(=O)(=O)c2ccccc2)CC1)c1ccccc1 (stereo unspecified)	-9	2	-12	11	0	6334	1.5
COc1ccc(Nc2ccc(C(=O)O)cc2[N+](=O)[O-])cc1	1	18	-5	5	-4	2463	1.1
O=C(CNC(=O)c1ccc(Cl)c([N+](=O)[O-])c1)OC1CCCCC1=O (stereo unspecified)	0	13	-7	9	-1	?	2.1
COc1ccc(C(=O)N(C)C2CCCN(Cc3ccccc3F)C2)cc1OC (stereo unspecified)	-15	4	-18	9	18	4066	2.0
O=C(O)CS(=O)(=O)c1ccc(C(F)(F)F)cn1	-1	-8	-15	-3	12	4697	-0.9
CCc1ccc(CNC(=O)C(=O)NCC2CCCO2)cc1 (stereo unspecified)	·	5	-25	-6	7	4329	5.5
Cc1ccc(C)c(NC(=O)CCC(=O)NNC(=O)COc2cc(C)ccc2C)c1	0	11	-3	2	3	5684	-4.0
Cc1ccc(NC(=O)c2ccc(Oc3ncccn3)cc2)cc1	-4	4	-33	10	-3	3399	-1.9

Going on with the list.
SMILES	BJeLR viability	Sa ugtP lethal	PrP UTR inh	Mtb hypoxia rep	Mtb hypoxia rep growth	Bead autofluor	Sa RN4220 lethal
O=C(CCCCn1c(=O)[nH]c2ccccc2c1=O)N1CCN(c2cccc(C(F)(F)F)c2)CC1	-7	-5	-11	3	15	4044	8.0
CCN(CC(=O)Nc1c(F)cccc1F)C(=O)CSCc1c(C)noc1C	-1	3	-20	-8	-3	6595	2.5
O=C(c1cccc(Br)c1)N1CCN(S(=O)(=O)N2CCCCC2)CC1	-4	1	-14	1	3	4305	-3.3
O=C(c1ccccc1)N1CCN(Cc2ccc3c(c2)OCO3)CC1	-5	2	-4	11	7	3824	0.1
CCOC(=O)N1CCc2c(sc(NC(=O)CCS(=O)(=O)c3ccccc3)c2C(N)=O)C1	-5	15	-7	8	1	3856	4.6
CC1(C)C2CC(=NO)C(C)(/[N+]([O-])=C/c3cccc([N+](=O)[O-])c3)CC21 (stereo unspecified)	·	-13	·	-2	5	·	-0.2
CCSC1=NC(=O)/C(=C2/C=Cc3ccccc3N2CC)S1	4	1	14	12	8	?	-1.4
COc1cccc(-c2sc3ccc(OC)cc3c2-c2ccc(OCCN3CCCC3)cc2)c1	·	90*	-23	·	·	3795	95*
Cc1ccccc1NC(=O)Oc1cccc(OC(=O)c2ccccc2)c1	0	15	-2	4	4	3128	1.1
Cn1c2ccccc2c2ncn(CCCN3CCOCC3)c(=O)c21	-1	-1	-4	1	2	3637	0.0
COc1ccc(N2CCN(C(CNC(C)=O)c3ccc4c(c3)OCO4)CC2)cc1 (stereo unspecified)	-13	8	-12	7	4	3916	4.4
O=C(NCc1ccc(Cl)cc1Cl)C1CC(=O)N(Cc2ccccc2)C1 (stereo unspecified)	12	0	-12	12	-3	5721	2.5
COc1ccccc1OCCNC(=O)c1cc([N+](=O)[O-])cc([N+](=O)[O-])c1	0	8	-2	10	11	4198	1.8
Cc1cccc(N2C(=O)CC(N3CCN(c4ccccc4)CC3)C2=O)c1 (stereo unspecified)	14	-4	-29	-8	6	10121	-2.5
Cc1nc2sc3c(c2c(=O)[nH]1)CCC3	-2	-4	2	15	13	8782	4.0
CCOC(=O)c1cnn(-c2ccccc2)c1-n1cccc1C(=O)C(=O)N(C)C	2	5	-28	19	3	4593	5.7
CCOc1ccc2c(c1)C(=O)c1cc(OCC(=O)O)ccc1-2	-9	3	-7	-4	3	4972	4.2
COC(=O)C1=C(c2ccc(F)cc2OCc2ccccc2)CC2CCC1N2C(=O)NC1CCCCC1 (stereo unspecified)	·	-14	·	-2	2	·	-6.9
CN1CCN(c2nc(Nc3ccc(F)cc3)nc(Nc3ccc(F)cc3)n2)CC1	-5	-8	-15	2	2	3128	-15
N#CC1=C(N)OC2=C(C(=O)CC(c3ccco3)C2)C1c1ccc(OCc2c(F)cccc2Cl)cc1 (stereo unspecified)	11	54	-16	13	5	3446	-19
COc1ccc(OC)c(S(=O)(=O)N2CCC(C(=O)NCc3ccccc3)CC2)c1	-16	4	-8	-1	6	10248	0.7
C1CCN(c2nc3nonc3nc2N2CCCC2)C1	-9	-1	-21	12	11	3828	7.7
CC1CCCCC1NC(=O)CCS(=O)(=O)c1cccc2nonc12 (stereo unspecified)	-5	-4	-21	19	13	4529	5.2
Cc1ccc(Cn2c(CN3CC(C)OC(C)C3)nc3c2c(=O)n(C)c(=O)n3C)cc1 (stereo unspecified)	-2	1	9	0	4	4737	-11
CC(C)(CN=C1NS(=O)(=O)c2ccccc21)CNC(=O)c1ccccc1	1	6	-16	4	1	6066	3.5

2 records drawn at random from the list so far:
SMILES	BJeLR viability	Sa ugtP lethal	PrP UTR inh	Mtb hypoxia rep	Mtb hypoxia rep growth	Bead autofluor	Sa RN4220 lethal
Cc1nc2sc3c(c2c(=O)[nH]1)CCC3	-2	-4	2	15	13	8782	4.0
Cc1cccc(N2C(=O)CC(N3CCN(c4ccccc4)CC3)C2=O)c1 (stereo unspecified)	14	-4	-29	-8	6	10121	-2.5

Additional records.
SMILES	BJeLR viability	Sa ugtP lethal	PrP UTR inh	Mtb hypoxia rep	Mtb hypoxia rep growth	Bead autofluor	Sa RN4220 lethal
Cc1nn(C)c(C(=O)N/N=C/c2ccc(-c3ccccc3)cc2)c1Cl	-4	·	-10	·	·	6155	·
CC(C)(C)C1CCc2sc(C(=O)NNC(=O)CCl)cc2C1 (stereo unspecified)	-4	-1	3	11	6	4283	16
CN(C(=O)c1cccc(Br)c1)C1CCS(=O)(=O)C1 (stereo unspecified)	17	1	-22	7	-2	5145	1.4
COc1ccc(-c2cn(Cc3cccc(OC)c3)nn2)cc1	1	-2	-19	-4	3	3560	1.1
CCc1cccc(C)c1NC(=S)N(CCCN1CCN(C)CC1)Cc1cccs1	22	-9	-6	-3	-3	4072	-0.8
CN(C)N(C(=O)c1cc(-c2cccs2)nn1-c1ccccc1)C1CCS(=O)(=O)C1 (stereo unspecified)	·	3	3	3	3	3398	2.9
Cc1ccc(NC(=O)C2C3C=CC4(O3)C2C(=O)N(CCCN2CCCC2)C4C(=O)NC2CCCCC2)cc1Cl (stereo unspecified)	-1	2	-17	4	-1	3342	0.3
CC(C(=O)NCc1ccccc1)N(Cc1ccccc1Cl)C(=O)c1snc(C(N)=O)c1N (stereo unspecified)	-5	-1	-8	-4	-6	4582	0.5
O=C(O)c1cc(NN=C/C=C/c2ccccc2[N+](=O)[O-])ccc1Cl	·	7	·	16	-5	·	2.0
COC(=O)C1CCN(C(=O)c2cc3c(=O)n4cccc(C)c4nc3n2Cc2ccccc2)CC1	4	-2	-24	-9	8	4569	-1.3
CCOc1ccc(NCc2cccn2-c2nnc(N3CCC(C(=O)NCCCN4CCCCC4)CC3)s2)cc1	-9	0	-10	6	1	5615	0.4
CC[C@H](C)[C@@H]1NC(=O)c2cc([N+](=O)[O-])cc(I)c2NCC[C@@H](C(N)=O)NC(=O)[C@H](CCCN=C(N)N)NC1=O	·	-11	·	6	12	·	-12
Cc1cnc(C(=O)OCc2cc(=O)n3c(C)cccc3n2)cn1	·	1	-23	-4	7	3561	1.2
CCCS(=O)(=O)N1CCN(C(=O)CCC2CCCC2)CC1	9	7	-10	·	·	4191	-0.2
Cc1cc(C)c2c(=O)[nH]n(C(C)C)c2n1	-3	0	-8	·	·	4784	2.3
Cn1c(Sc2ccc(Cl)cc2)c(C=O)c2ccccc21	7	9	5	0	6	2983	-11
COc1cccc(/C(O)=C2/C(=O)C(=O)N(CCN(C)C)C2c2ccc(Br)cc2)c1 (stereo unspecified)	0	7	-8	·	·	4785	2.0
Cc1ccc(C=NN2C(=O)c3ccccc3NC2c2ccc(C)cc2)cc1 (stereo unspecified)	·	-4	·	5	2	·	-1.5
O=C(CCc1ccncc1)NC1CCCc2c1cnn2-c1ccc(F)cc1F (stereo unspecified)	8	3	-16	2	6	4164	-0.5
COc1ccc(OC)c(S(=O)(=O)Nc2ccccc2SC)c1	-2	0	-20	-6	0	10029	7.8
O=S(=O)(NCC(O)COCc1ccco1)c1cccs1 (stereo unspecified)	1	-2	-7	·	·	2427	1.2
Cc1cc(=O)[nH]c(SCC(=O)N2CCN(C(c3ccccc3)c3ccccc3)CC2)n1	9	0	-19	12	8	3320	-14
O=C(COc1ccc(Cl)cc1)Nc1cnn(Cc2c(Cl)cccc2Cl)c1	-3	-8	-8	·	·	2707	-6.0
Cc1cc(NC(=O)CCC(=O)N(Cc2ccco2)C(C)(C)C(=O)NC2CCCCC2)no1	-2	3	-7	4	7	3217	5.1
CC(C)(C)c1ccc(Cn2nnc3c(=O)[nH]c(C4CCN(C(=O)Cc5cccs5)CC4)nc32)cc1	7	17	-4	10	5	20958*	12
CC(=NNC(=O)c1cc(Br)ccc1O)c1cccc(NC(=O)c2ccccc2F)c1	·	-8	·	10	1	·	5.9
COc1ccc(C(=O)Nc2ccccc2N2CCN(C(=O)C(C)C)CC2)cc1Cl	-4	10	3	-1	12	3425	3.3
CC(=O)O[C@@H]1[C@@]2(C)O[C@H]2CC[C@]23O[C@H]2[C@H](OC3=O)C2=C(C)C(=O)O[C@@]21O	-6	·	5	·	·	4158	·

Entries of single compounds, quoted from the list. Order of screens: BJeLR viability	Sa ugtP lethal	PrP UTR inh	Mtb hypoxia rep	Mtb hypoxia rep growth	Bead autofluor	Sa RN4220 lethal
Cn1c(Sc2ccc(Cl)cc2)c(C=O)c2ccccc21 reads 7	9	5	0	6	2983	-11
Cc1ccc(C=NN2C(=O)c3ccccc3NC2c2ccc(C)cc2)cc1 (stereo unspecified) reads ·	-4	·	5	2	·	-1.5
Cc1cnc(C(=O)OCc2cc(=O)n3c(C)cccc3n2)cn1 reads ·	1	-23	-4	7	3561	1.2
O=C(O)c1cc(NN=C/C=C/c2ccccc2[N+](=O)[O-])ccc1Cl reads ·	7	·	16	-5	·	2.0
CCCS(=O)(=O)N1CCN(C(=O)CCC2CCCC2)CC1 reads 9	7	-10	·	·	4191	-0.2

Source: PubChem
